Screens: PubChem BioAssay, National Center for Advancing Translational Sciences (NCATS)
Vaccinia mCherry – inhibitors of vaccinia virus infection (mCherry reporter signal) | Vaccinia virus mCherry reporter infection, fluorescence; about a quarter of the inactives have no number | Potency, µM (series often up to 36.5 µM), without a hit: top-dose activity change, negative = inhibition, actives largely listed as inhibitors | 0.63% of 310,000 active; active = well fitted inhibition curve with a large enough effect; inconclusive = small, poorly fitted or top-dose-only effect; inactive = no such curve, though single readings can be large or run the other way; tested in A549 cells; note: nearly all actives have a fitted effect of over 35% in size; inactives centre near -10
VACV Venus inh – vaccinia inhibition (Venus reporter). Vaccinia virus Venus reporter expression, fluorescence. Potency, µM (top dose mostly 36.5 µM), without a hit: top-dose activity change, negative = inhibition, most hits filed as inhibitors. 0.46% of 330,000 active; active means well fitted inhibition curve with a large enough effect; inconclusive means small, poorly fitted or top-dose-only effect; inactive means no such curve, though single readings can be large or run the other way; tested in A549 cells; note: nearly all actives have a fitted effect of over 30% in size; inactives centre near -10
Active calls of the source: *; i = inactive; ? = inconclusive; / = not tested or not shown; & = joins results of further samples; [ ] = dose if it differs, or a comment. % is set by controls: 0 for no effect and ±100 for the full control effect; potency is the fitted concentration of half-maximal effect.

entry	molecule	Vaccinia mCherry	VACV Venus inh
1	COC(=O)c1ccc(C2C(C(C)=O)=C(O)C(=O)N2CCO)cc1 (centres undefined)	/	-3%
2	COc1cc(C(c2sc3nc(C)nn3c2O)N2CCC3(CC2)OCCO3)cc(OC)c1OC (centres undefined)	i	-11%
3	O=C(Nc1ccc(O)cc1C(=O)O)c1cccs1	i	-15%
4	COc1cccc(C(=O)NCCC2=CCCCC2)c1	-15%	-7%
5	C[C@]12CC[C@H](O)CC1=CC(=O)C1C2CC[C@]2(C)C(=O)CCC12 (some centres undefined)	-12%	-8%
6	Cc1cccc(Cn2cnc3c(sc4nc(C)cc(C)c43)c2=O)c1	-6%	-2%
7	CC(=O)Oc1ccc(N2C(=O)C3C4C=CC(CC4)C3C2=O)cc1[N+](=O)[O-] (centres undefined)	-1%	-12%
8	Cc1ccc(S(=O)(=O)N2CCN(c3cc(-c4cccs4)nc4ccccc34)CC2)cc1	-10%	-13%
9	Cc1ccc(CCNC(=O)c2ccc3c(c2)N(Cc2cccc(F)c2)C(=O)c2ccccc2S3)cc1	-27%	-20%
10	Cc1ccc(C(=O)NCc2ccc(F)cc2)cc1NC1=NC2CS(=O)(=O)CC2S1 (centres undefined)	-9%	2%
11	NC(=O)NC(=O)CSc1nc2sc(-c3ccccc3)cc2c(=O)n1-c1ccccc1	i	-16%
12	O=C1NN(c2ccccc2)C(=O)C1=Cc1ccccc1O	i	-10%
13	CCOc1ccc(-n2nc(CO)c(C(=O)NCCCc3ccccc3)n2)cc1	0%	-9%
14	Cc1ccc2ccc(C(Nc3ccccc3)c3ccccc3)c(O)c2n1 (centres undefined)	?	?
15	COc1ccc2nc(SCC(=O)NCc3ccc(F)cc3)[nH]c2c1	-18%	5%
16	COc1ccc(OCC(=O)Nc2nonc2NC(=O)COc2ccc(OC)cc2)cc1	-5%	-8%
17	CCN(CC)C(=O)CC(c1ccc(F)cc1)c1ccco1 (centres undefined)	/	-6%
18	COc1ccccc1NC(=O)CSCc1cc(=O)c2cccc(Cl)c2[nH]1	3%	0%
19	O=C(NCC1CCN(Cc2cccc(Cl)c2)CC1)Nc1cc(Cl)ccc1Cl	-26%	-30%
20	O=C(O)c1cccc(Cn2c(Cl)c(/C=N/NC(=O)c3ccccc3Cl)sc2=O)c1	i	-9%

The listing continues.
entry	molecule	Vaccinia mCherry	VACV Venus inh
21	C=CCN(CC=C)C(=O)c1cc2ccccc2c(=O)o1	i	-15%
22	Cc1ccc(OCC(=O)Nc2ccc(OCc3cc(=O)n4ccsc4n3)cc2)cc1C	-1%	-6%
23	O=c1[nH]c(=S)[nH]c2c1C(c1ccccc1)OC(C1CCCCC1)C2 (centres undefined)	i	-4%
24	Cc1ccnc(NC(=O)COc2ccc3c(c2)CCC3)c1	i	-7%
25	Cc1cc(NS(=O)(=O)c2ccc(NC(=O)CN3C(=O)NC(C)(c4ccccc4)C3=O)cc2)nc(C)n1 (centres undefined)	-2%	4%
26	CCc1nnc(NC(=O)CSc2nc3cc(OC)c(OC)cc3cc2C)s1	i	-21%
27	O=C(CN1CCN(Cc2ccc3c(c2)OCO3)CC1)NCC(F)(F)F	-15%	-10%
28	c1ccc(CSc2ccc(-c3ccco3)nn2)cc1	-3%	-17%
29	CN(Cc1ccccc1)C(=O)N[C@@H](Cc1ccccc1)C(=O)O	/	-15%
30	CN(C(=O)CN1CC=C(c2ccccc2)CC1)c1c(N)n(Cc2ccccc2)c(=O)[nH]c1=O	i	-10%
31	COc1cc(C(=O)N2CCN(c3ccccn3)CC2)cc(OC)c1OC	?	-14%
32	CC(=O)N1c2ccc(S(=O)(=O)NCCC(=O)NCc3ccc(Cl)cc3)cc2CC1C (centres undefined)	-1%	-17%
33	Cc1ccc(/C=C(/C#N)C(=O)NC(C)c2ccccc2)o1 (centres undefined)	-1%	-16%
34	COc1ccc(S(=O)(=O)N2CCN(C(=O)NCc3ccc(C)cc3)CC2)cc1	-1%	0%
35	Cc1cc(Oc2ccc(C(F)(F)F)cc2[N+](=O)[O-])c2c3c(c(=O)oc2c1)CCC3	i	-3%
36	CCCc1nnc(NC(=O)CCC(=O)N2CCN(CCn3c(C)ccc3C)CC2)s1	-15%	-3%
37	CC(C)Oc1ccc(CN2CCC2(C)C(=O)NCc2cccc3ccccc23)cc1 (centres undefined)	7%	-7%
38	Cc1ccc([N+](=O)[O-])cc1N=C1C(=O)Nc2ccccc21	-24%	-15%
39	COc1ccc2nc(SCC(=O)Nc3ccccc3OC)[nH]c2c1	-24%	-14%
40	CC(C)(C)S(=O)N1Cc2cc(CO)cc(-c3ccccc3)c2[C@@H]1CCO (some centres undefined)	-14%	-17%

Other structures:
entry	molecule	Vaccinia mCherry	VACV Venus inh
41	COc1ccc(C2=Nc3nc(-c4ccccc4)cn3C(c3ccc(OC)cc3)C2)cc1 (centres undefined)	?	-21%
42	O=C(O)c1cccc(NC(=O)c2cccc(S(=O)(=O)Nc3cccc([N+](=O)[O-])c3)c2)c1	-1%	-11%
43	COc1ccc(C(c2c(O)cc(C)n(Cc3ccco3)c2=O)N2CCCCC2)cc1OC (centres undefined)	-16%	-12%
44	O=C(Nc1ccnn1C1CCN(Cc2ccccc2OC(F)F)CC1)c1cccnc1	i	-24%
45	O=C(Nc1ccncc1)C1CC1c1ccccc1 (centres undefined)	-22%	-14%
46	O=S1(=O)C=C(SCCN2CCCCC2)c2ccccc21	-29%	-11%
47	O=C(COc1ccc(F)cc1)Nc1ccccc1C(=O)OCc1cc(=O)n2nc(C3CC3)sc2n1	-17%	-6%
48	Cc1ccc(SCC(=O)NCCCN2CCOCC2)cc1	/	-19%
49	Cc1occc1C(=O)N1N=C(C2CC2)CC1(O)C(F)(F)F (centres undefined)	/	-12%
50	N#Cc1ccc(C(=O)Nc2ccc(Cl)c(-c3nc4cc(Cl)ccc4o3)c2)c(F)c1	-12%	1%
51	O=C(NCCCN1CCOCC1)/C(=C/c1ccco1)NC(=O)c1ccccc1	i	0%
52	Cc1c(Cl)cccc1NC(=O)c1ccc2c(c1)CCN2S(=O)(=O)c1ccccc1	-13%	-11%
53	O=C(NCCCn1ccnc1)c1cc(-c2cccnc2)nc2ccc(Br)cc12	-7%	3%
54	CCCCn1nnnc1C(c1cc2ccccc2o1)N1CCOCC1 (centres undefined)	4%	3%
55	CC(=O)Nc1ccc(C=CC(=O)c2ccc([N+](=O)[O-])cc2)cc1	0%	-7%
56	CCOc1nc2c(c(=O)n(C)c(=O)n2C)n1Cc1ccccc1Cl	-12%	-11%
57	CCC(C)[C@H]1CNCCN1CCC12CC3CC(CC(C3)C1)C2 (some centres undefined)	?	-13%
58	COCCNC(=O)c1ccccc1NC(=O)Nc1ccccc1	-16%	-5%
59	C=CC[C@H](CC(=O)NCCO)C(=O)NC[C@@H](OC(=O)[C@@H](CC=C)CC(=O)OC(C)(C)C)c1ccccc1	i	-10%
60	CCOc1ccc(C2CC(=O)Nc3c2c(=O)[nH]c2ncnn32)cc1 (centres undefined)	-5%	4%

Exported screen by screen: part of the list above
#1 COC(=O)c1ccc(C2C(C(C)=O)=C(O)C(=O)N2CCO)cc1 (centres undefined)
#2 COc1cc(C(c2sc3nc(C)nn3c2O)N2CCC3(CC2)OCCO3)cc(OC)c1OC (centres undefined)
#3 O=C(Nc1ccc(O)cc1C(=O)O)c1cccs1
#4 COc1cccc(C(=O)NCCC2=CCCCC2)c1
#5 C[C@]12CC[C@H](O)CC1=CC(=O)C1C2CC[C@]2(C)C(=O)CCC12 (some centres undefined)
#6 Cc1cccc(Cn2cnc3c(sc4nc(C)cc(C)c43)c2=O)c1
#7 CC(=O)Oc1ccc(N2C(=O)C3C4C=CC(CC4)C3C2=O)cc1[N+](=O)[O-] (centres undefined)

entry no. | 1 | 2 | 3 | 4 | 5 | 6 | 7
Vaccinia mCherry | / | i | i | -15% | -12% | -6% | -1%
VACV Venus inh | -3% | -11% | -15% | -7% | -8% | -2% | -12%

New compounds follow:
entry	molecule	Vaccinia mCherry	VACV Venus inh
61	CC(C)CCNC(=S)Nc1ccc2nc3n(c(=O)c2c1)CCCCC3	3%	-20%
62	O=C(c1ccc(CSc2nc3ccncc3[nH]2)cc1)N1CCCCC1	-5%	-11%
63	OC(COc1ccc(OCc2ccccc2)cc1)CN1CCOCC1 (centres undefined)	i	-11%
64	CC(=O)N1CCN(Cc2nc3cc(NC(=O)c4ccc(Cl)cc4)ccc3n2C)CC1	-7%	-22%
65	Cc1nc2nc(SCC(N)=O)[nH]c2cc1Br	/	-2%
66	CCc1nnc(NC(=O)CCNC(=O)c2ccco2)s1	i	2%
67	O=C(CSc1nnc(C2CC2)n1C1CC1)N1CCN(c2ccc(O)cc2)CC1	i	-4%
68	CC1(C(=O)O)CCN1C(=O)COc1ccc(Cl)cc1 (centres undefined)	i	-6%
69	COc1cc(Cl)c(NC(=O)c2cc(S(=O)(=O)N3CCOCC3)cn2C)c(OC)c1	-2%	-1%
70	CCC1CN(C(=O)Nc2ccccc2C(F)(F)F)c2ccccc2S1 (centres undefined)	-8%	2%
71	O=c1cc(CSc2ccc(Cl)cc2)[nH]c2[nH]n(-c3ccccc3)c(=O)c12	i	-7%
72	CCCCCCCCCc1nc(N)n[nH]1	-1%	-13%
73	O=C(c1ccc(F)cc1)N1CCCCC(Sc2nnc3ccccn23)C1=O (centres undefined)	-20%	-7%
74	CCn1c(SCc2nc3ccccc3c(=O)[nH]2)nc2ccccc2c1=O	/	-8%
75	O=C(Nc1ccc2nc3n(c(=O)c2c1)CCCCC3)C(=O)N1CCN(c2ccc(F)cc2)CC1	-16%[7.34 µM]	?
76	O=C(OCc1nc2ccsc2c(=O)[nH]1)c1ccc(Cl)nc1	-2%	6%
77	CC[C@H]1OC(=O)[C@H](C)[C@@H](O[C@H]2C[C@@](C)(OC)[C@@H](O)[C@H](C)O2)[C@H](C)[C@@H](O[C@@H]2O[C@H](C)C[C@H](N(C)C)[C@H]2O)[C@](C)(O)C[C@@H](C)CN(C)[C@H](C)[C@@H](O)[C@]1(C)O	i	-13%
78	CCN(CC(=O)Nc1ccccc1C(F)(F)F)C(=O)CSCC(=O)Nc1cc(C)on1	-13%	-15%
79	COc1ccc(C2=CC(=O)CC(C)(C)C2)cc1OC	-7%	-15%
80	Cc1cccc(NC(=O)Cn2nnc3ccccc32)c1	3%	11%

Next compounds.
entry	molecule	Vaccinia mCherry	VACV Venus inh
81	Cc1ccc(NC(=O)/C=C/c2ccccc2Cl)cc1Cl	-7%	-8%
82	O=C(O)c1cc2c(cn1)[nH]c1ccccc12	-1%	2%
83	O=C(COc1ccc2c(c1)OCO2)Nc1ccc(Cl)cn1	-15%	-11%
84	CC1(C)Cc2c(sc3nc(-c4ccccc4Cl)n(N)c(=O)c23)CO1	i[1.46 µM]	-23%
85	Cc1nn(C)c(C)c1S(=O)(=O)N1CCCC(C(=O)NC2CCCCC2)C1 (centres undefined)	-19%	-19%
86	COc1ccc(S(=O)(=O)N2CCN(CC(=O)N3CCOCC3)CC2)cc1OC	i	-5%
87	Ic1ccc(Nc2nc(NCCN3CCOCC3)nc(N3CCCC3)n2)cc1	-24%	-20%
88	COC(=O)c1c(SC)nc2ccccc2c1OCc1ccc(Br)cc1	12%	6%
89	COc1ccc(Cl)cc1-c1cc(C(=O)Nc2cc(OC)c(OC)c(OC)c2)[nH]n1	?	?
90	NC(c1csc(Nc2cnccn2)n1)C1CCCCC1 (centres undefined)	-21%	-11%
91	C[C@H]1CN([C@@H](C)CO)C(=O)c2cccc(NC(=O)Nc3ccc(C(F)(F)F)cc3)c2O[C@H]1CN(C)C	?	?
92	O=C(NCc1ccc(C(F)(F)F)cc1)c1cccc2c(-c3ccc(F)c(F)c3)coc12	16%	-11%
93	Cc1nnc(SCC(=O)Nc2nccs2)n1C(C)C	-15%	-1%
94	O=C(CNC(=O)c1ccc(Br)o1)NCC(=O)OCc1ccccc1	-13%	-16%
95	Cc1cc(SCC#N)n2nc(C)c(-c3ccccc3)c2n1	?	-27%
96	CC(C)Cn1cnc2c(Sc3c([N+](=O)[O-])ncn3C)nc(N)nc21	?	?
97	Cc1cc(C(=O)NC2CCCc3c2cnn3-c2ccccc2F)nc(C)n1 (centres undefined)	i	-7%
98	O=C(OCC(=O)N1CCCC1)c1cc([N+](=O)[O-])ccc1Cl	-11%	17%
99	COC(=O)CCC(=O)N1CCc2cc(S(=O)(=O)N3CCN(c4ccccc4Cl)CC3)ccc21	/	-11%
100	O=C(Nc1ccccc1F)C1CCN(S(=O)(=O)c2ccc3c(c2)CCCN3C(=O)C2CCC2)CC1	-8%	-13%

(more compounds)
entry	molecule	Vaccinia mCherry	VACV Venus inh
101	CC(C)CN1CCC(=O)N(CCC#N)CC1	0%	-7%&-16%
102	COc1ccc2cc(C[C@@H]3CC[C@@H](CO)O3)ccc2c1	i	-5%
103	Cc1cc(C(=O)N/N=C/C(Cl)=C/c2ccccc2)c(C)o1	-19%	-24%
104	NC(=O)COc1ccccc1C(=O)Nc1ccccc1	-6%	-8%
105	CC(=O)c1ccc(NC(=S)NC(=O)/C=C/c2ccc(F)cc2)cc1	-19%	6%
106	N#Cc1sc2nc(-c3cccs3)cc(-c3ccc(F)cc3)c2c1N	i	-7%
107	O=C(c1cccc(F)c1)N1CCN(C(=O)c2cc3nc(-c4ccco4)cc(C(F)(F)F)n3n2)CC1	1%	1%
108	CCOC(=O)COc1ccc2c(c1)c(C(C)=O)c(C)n2-c1ccc(OC)cc1	-13%	-24%
109	Cc1ccccc1CNC(=O)c1ccc(NC(=O)N2CCCCc3ccccc32)cc1	-15%	-8%
